High-throughput results (PubChem BioAssay)
Ecoli growth: E. coli growth inhibition; Escherichia coli growth, OD600, 23 h; hits give low values; OD600 absorbance (test concentration not listed); 330,000 compounds, 0.21% hits;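 active means OD600 absorbance below the run mean of sample wells minus 3.6 SD, in any replicate, cut at about 0.56 in these data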;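 further: stock transfer was 300 nL into about 60 µL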
FGF22 binding: shifts melting point of recombinant human FGF22. Q9HCT0. recombinant FGF22 thermal shift, SYPRO orange fluorescence; percent of sucrose octasulfate shift, DMSO zero. calls only at 9.99 µM. 340,000 compounds, 1.5% hits. AID 651658;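 active means melting point raised past a set limit in the mean and every replicate; inconclusive means no clear call; three in four hits are not shown here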
Target sequence (Q9HCT0 whole entry, looked up): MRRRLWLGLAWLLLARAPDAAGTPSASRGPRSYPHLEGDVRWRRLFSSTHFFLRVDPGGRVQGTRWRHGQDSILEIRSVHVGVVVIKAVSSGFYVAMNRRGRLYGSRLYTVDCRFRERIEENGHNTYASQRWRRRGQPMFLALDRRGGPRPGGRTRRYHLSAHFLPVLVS
HNF4A DNA FP: change in binding of human HNF4 alpha to DNA | P41235 | HNF4a-FITC DNA binding, fluorescence polarization, 1 h | activity change, % at 10 µM | 360,000 compounds, 0.3% hits; in the data active means activity change above about 30%, passing the limit was not always enough;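 further: controls were the assay level and a saturating level of protein; the project sought stronger binding though the title names inhibitors; some compounds called inactive have numbers as strong as hits; positive values seem to mean higher polarization but the record does not say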
ALR H2O2 inh: inhibitors of human sulfhydryl oxidase ALR | 290,000 compounds, 3.8% hits | inhibition, % (concentration not given with the values) | purified ALR, DTT oxidation, H2O2 HRP-luminol luminescence | P55789;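 active means mean and each replicate at 75% or more; inconclusive means only one of the two met; inactive means neither met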;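 further: stock transfer was 7.5 nL into about 7.5 µL; 0% = neutral wells and 100% = wells with inactivated enzyme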
Target sequence (P55789 whole entry, looked up): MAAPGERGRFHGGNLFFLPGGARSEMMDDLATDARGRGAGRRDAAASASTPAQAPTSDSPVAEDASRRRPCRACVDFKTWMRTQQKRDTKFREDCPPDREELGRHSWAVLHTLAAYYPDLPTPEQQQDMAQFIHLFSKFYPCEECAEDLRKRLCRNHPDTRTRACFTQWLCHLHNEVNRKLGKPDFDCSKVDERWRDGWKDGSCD
Ecoli rRNA inh: inhibits bacterial ribosomal RNA function over humanized ribosomes; 350,000 compounds, 1.6% hits; E. coli WT GFP vs humanized-ribosome RFP mutants, fluorescence, 24 h; hits give low values; DMSO median 0, no signal -100; GFP signal change (wild-type ribosome), % (no concentration beside the values); AID 720706;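 active means significant combined selectivity score with lowered wild-type GFP, culture density cut under 30%, mutant RFP and density less affected; inactive means any of these conditions unmet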; further: one replicate is shown; some compounds called inactive have numbers as strong as hits
MLL AF4-AF9 inh: blocks AF4 peptide binding to human AF9; P42568; AlphaScreen, biotin-AF4 peptide binding to FLAG-AF9; inhibition, % at 10 µM; 350,000 compounds, 0.47% hits; AID 651704;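 active means every replicate reaching a set inhibition limit, whatever the replicate mean, cut at about 25% in these data; inconclusive means mean inhibition reaches that limit but some replicates miss it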;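 further: 0% = plate neutral control median and 100% = total signal loss; the record names both 10 and 1 µM as test concentration; the first replicate is given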
Target sequence (P42568 whole entry, looked up): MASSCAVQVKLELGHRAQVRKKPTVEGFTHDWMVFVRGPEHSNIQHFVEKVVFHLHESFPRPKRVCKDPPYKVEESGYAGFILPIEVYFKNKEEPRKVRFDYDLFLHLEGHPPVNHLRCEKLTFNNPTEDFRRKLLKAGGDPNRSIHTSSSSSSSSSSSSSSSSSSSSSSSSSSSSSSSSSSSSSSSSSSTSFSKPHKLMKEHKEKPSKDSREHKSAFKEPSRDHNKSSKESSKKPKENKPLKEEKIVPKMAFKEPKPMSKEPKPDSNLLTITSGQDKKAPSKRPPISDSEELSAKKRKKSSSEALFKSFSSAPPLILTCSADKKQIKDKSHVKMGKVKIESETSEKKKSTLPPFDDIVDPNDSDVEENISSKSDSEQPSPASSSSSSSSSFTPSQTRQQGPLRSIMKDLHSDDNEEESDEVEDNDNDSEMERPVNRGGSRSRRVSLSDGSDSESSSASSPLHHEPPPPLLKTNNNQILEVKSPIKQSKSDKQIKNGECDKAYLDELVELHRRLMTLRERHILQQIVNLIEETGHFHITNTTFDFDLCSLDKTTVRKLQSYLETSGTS
Vif TR-FRET: HIV-1 Vif–A3G interaction blockers – biochemical, TR-FRET, GST-Vif 1-94, biotin-A3G peptide, dose response retest, primary screen (AID 1117319). TR-FRET GST-Vif / biotin-A3G peptide binding; higher % means a stronger effect; test concentration not given here; strong numbers were not always called active. one-dose inhibition, %; IC50 in µM for titrated hits. 260,000 compounds, 0.57% hits;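 active means above the screen mean plus three standard deviations and confirmed in dose response; inconclusive means results disagree or hit not tested in dose response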;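 further: Vif residues 1-94 fused to GST binding biotinylated APOBEC3G peptide 110-148; 0% = full assay without inhibitor and 100% = GST in place of GST-Vif; retest series ran down from 100 µM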
Ecoli rRNA inh OD600: also measured in Ecoli rRNA inh; calls as there; OD600 change, %; measured here: OD600 growth;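 optical density of the mix in the first replicate; 0 = DMSO median and -100 = no signal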
Ecoli rRNA inh RFP: recorded beside Ecoli rRNA inh, whose call it bears; RFP signal change, %; measured here: RFP humanized mutant strains;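 first replicate; 0 = DMSO median and -100 = no signal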
Active calls of the source: *; i = inactive; ? = inconclusive; / = no result given. This is a subset (hit frequency here may not be typical).

Preview, 2 compounds:
SMILES	Ecoli growth	FGF22 binding	HNF4A DNA FP	ALR H2O2 inh	Ecoli rRNA inh	Ecoli rRNA inh OD600	Ecoli rRNA inh RFP	MLL AF4-AF9 inh	Vif TR-FRET
Cc1cc(CN(C)C(=O)CC2C(=O)NCCN2Cc2c(F)cccc2Cl)n[nH]1 (centres undefined)	0.68	i	8.9	-7	10	5	0.7	-1.2	?
CSCCC(NC(=O)c1cccc(C)c1)C(=O)OCC(=O)Nc1c(C)nn(-c2ccccc2)c1C (centres undefined)	0.59	i	1.1	0	-2	-1	-0.4	1.6	11%

The list itself, from the start:
SMILES	Ecoli growth	FGF22 binding	HNF4A DNA FP	ALR H2O2 inh	Ecoli rRNA inh	Ecoli rRNA inh OD600	Ecoli rRNA inh RFP	MLL AF4-AF9 inh	Vif TR-FRET
Cc1cc(CN(C)C(=O)CC2C(=O)NCCN2Cc2c(F)cccc2Cl)n[nH]1 (centres undefined)	0.68	i	8.9	-7	10	5	0.7	-1.2	?
CSCCC(NC(=O)c1cccc(C)c1)C(=O)OCC(=O)Nc1c(C)nn(-c2ccccc2)c1C (centres undefined)	0.59	i	1.1	0	-2	-1	-0.4	1.6	11%
CC(=O)N1CCN(c2ccc(NCc3ccc(C)cc3)cc2)CC1	0.71	/	1.7	99*	/	/	/	/	?
CCOc1ccc(CCNC(=O)CSc2cc(=O)n(C)c3cc(Cl)ccc23)cc1OCC	0.69	/	0.4	-30	/	/	/	/	-4%
CCOC(=O)C(C)(C)Oc1ccc(Cl)cc1	0.66	i	-0.9	-6	/	/	/	-17	/
O=C(CN1CCN(Cc2ccccc2F)C1=O)NCc1ccco1	0.66	/	-1.6	/	/	/	/	/	6%
CCN(CC(=O)Nc1c(F)cccc1F)C(=O)c1cc([N+](=O)[O-])ccc1N1CCCCC1	0.71	/	0.9	0	-10	-2	6.0	2.6	5%
COc1ccc2c3c([nH]c2c1)[C@@H](CO)N(C(=O)C1CCC1)CC31CCN(C(=O)c2ccncc2)CC1	/	i	/	/	1	5	1.3	1.3	/
Cc1ccccc1CN1CCNC(=O)C1CC(=O)O (centres undefined)	0.75	i	4.4	-19	1	5	-1.4	-2.6	0%
C[C@H]1CN([C@@H](C)CO)C(=O)c2cc(NC(=O)CCCCCC(=O)Nc3ccccc3N)ccc2O[C@H]1CN(C)Cc1ccc(C(F)(F)F)cc1	/	i	/	/	-4	-7	3.2	2.0	/
Cc1nnsc1S(=O)c1ccc(Cl)cc1 (centres undefined)	0.63	i	0.5	/	3	3	-1.5	-1.8	/
Cc1noc(C)c1S(=O)(=O)Nc1ccc2c(c1)C(=O)N([C@@H](C)CO)C[C@@H](C)[C@@H](CN(C)C)O2	/	i	/	/	6	-3	-0.9	-2.4	/
O=C(NCC1CC1)[C@@H]1[C@@H](CO)[C@@H]2Cn3c(cccc3=O)[C@@H]2N1CCC(F)(F)F	/	i	/	/	4	0	0.5	0.2	/
COc1ccccc1CNC(=O)COC(=O)c1ccc(C)c(S(=O)(=O)N2CCCCC2)c1	0.74	i	-3.5	-1	1	-1	0.9	-0.6	-3%
Cc1ccc(NC(=O)CN(C)C(=O)c2ccc(Cl)c(S(=O)(=O)NCc3ccco3)c2)cc1	0.68	i	4.8	-3	-2	3	-1.2	1.7	/
Cc1ccc(CNC(=O)CN(C)S(=O)(=O)c2cccs2)cc1	0.67	i	2.0	-4	1	-3	0.6	-1.1	/
Cc1nc2ccc(S(=O)(=O)NC(C(=O)Nc3nc4ccc(Cl)cc4s3)C(C)C)cc2s1 (centres undefined)	0.77	i	-1.9	9	6	-1	-0.1	-6.4	9%
O=C(O)CC(NC(=O)C12CC3CC(CC(C3)C1)C2)c1cccc(Cl)c1 (centres undefined)	0.67	i	4.0	-6	-6	-4	-1.2	1.5	/
C/C(=N\Nc1nc2ccccc2[nH]1)c1ccc(C)o1	/	/	2.3	99*	/	/	/	/	32%
Cc1ccc2nc(-c3ccccn3)oc2c1	0.69	/	0.6	0	/	/	/	/	?
Cc1ccc(-n2ncc3c(SCc4cccnc4)ncnc32)c(C)c1	0.72	i	0.2	/	1	-6	0.6	3.2	-5%
COc1ccc(NC(=O)CSc2nnc(-c3ccccc3)n2Cc2ccco2)cc1OC	0.77	/	-1.3	0	/	/	/	/	6%
CCc1cccc(NC(=S)N2CCC(c3ccccc3)C2)c1 (centres undefined)	0.66	i	-2.4	0	-27	-38	-17	4.8	-15%
COC(=O)c1ccc(-c2ccc(F)cc2)nc1C	0.69	/	-2.7	-3	/	/	/	/	0%
CO[C@@H]1CN(C)C(=O)c2ccc(NC(=O)Nc3cccc(F)c3)cc2OC[C@@H](C)NC[C@H]1C	/	i	/	/	0	-4	2.3	7.6	/
C[C@H](CO)N1C[C@H](C)[C@@H](CN(C)S(C)(=O)=O)Oc2ncc(C3=CCCC3)cc2C1=O	/	i	/	/	-4	-11	0.3	0.5	/
O=C1NC(c2ccccc2)=N/C1=C/c1ccco1	/	i	-1.3	-11	12	16	6.1	-1.7	/
O=S(=O)(c1cc(Cl)cc(Cl)c1)N1CCC2CC1c1cc(Cl)ccc12 (centres undefined)	/	i	0.2	/	2	6	-0.6	-1.3	-5%
COc1ccc(S(=O)(=O)N2CCN(C)CC2c2ccccc2)cc1OC (centres undefined)	0.71	i	-1.8	/	4	2	-0.2	2.9	5%
CCn1cc(C(=O)OCc2cccc(Br)c2)c(=O)c2ccc(C)nc21	0.72	/	-5.1	-2	/	/	/	/	-13%
COc1cccc(CNc2nc3ccccc3n2C)c1O	/	i	3.8	?	-12	2	-5.7	-4.7	2%
CC/C(=N\Nc1ccc([N+](=O)[O-])cc1)c1ccccc1	/	/	21	34	/	/	/	/	-4%
CCN(CC)CCCN(Cc1cc2cc3c(cc2[nH]c1=O)OCO3)C(=S)NCc1ccco1	0.65	i	3.3	/	7	0	0.6	5.1	12%
CO[C@H]1CN(C)C(=O)c2ccc(NC(=O)NC(C)C)cc2OC[C@@H](C)N(CC2CC2)C[C@@H]1C	/	i	/	/	2	-3	1.0	-12	/
CC(C)OCCCNc1ncnc2c1cnn2-c1ccccc1	0.79	/	1.1	/	/	/	/	/	-2%
CC1(C(=O)NS(=O)(=O)c2ccc(Cl)cc2)CCN1C(=O)COc1ccc(Cl)cc1 (centres undefined)	/	i	0.8	/	3	12	1.5	-4.4	/
CC(C)CC(C(=O)NCC1CCCO1)N(C(=O)Cn1nnc(-c2ccc(F)cc2)n1)c1ccccc1F (centres undefined)	0.68	/	-0.1	4	/	/	/	/	16%
CSc1ccc(C2=CC(=O)C[C@H](c3ccc(Cl)cc3)C2)cc1	/	i	-2.0	1	-7	-11	-7.5	0.2	/
CCOC(=O)N1CCc2c(sc3nc4n(c(=O)c23)N=C(C)CS4)C1	0.72	/	-1.6	-5	/	/	/	/	2%
CC(=O)N1CCN(CC(=O)Nc2cc(F)ccc2C)CC1	0.63	i	-5.1	4	3	9	-0.9	0.7	6%
N=c1oc2ccc(Br)cc2cc1C(=O)NCc1ccccc1	0.73	i	3.5	-47	1	13	3.0	-2.2	/
CNC(=O)C1(C)Cc2c(-c3ccc(NC(C)=O)cc3)ccnc2O1 (centres undefined)	/	i	-1.5	/	10	20	-0.7	-6.1	/
Cc1ccc(C)c(NC(=O)CS(=O)(=O)c2cn(C)c3ccccc23)c1	0.69	i	2.5	-11	-4	-6	1.0	-1.7	13%
CN1C(=O)/C(=C/c2ccccc2F)Sc2ccc(C(=O)NCC3CCCO3)cc21 (centres undefined)	0.68	i	-2.5	-5	-31	-50	1.5	?	/
CNC[C@H]1Oc2ccc(NC(=O)NC(C)C)cc2C(=O)N([C@H](C)CO)C[C@H]1C	/	i	/	/	4	16	-1.1	-1.1	/
COC(=O)[C@H]1C[C@@H]1[C@H](N)c1ccccc1	/	i	-3.2	-5	4	7	0.5	0.9	/
O=c1[nH]c2ccc(Br)cc2c(-c2ccccc2)c1N1CCOCC1	0.7	i	-0.4	6	-21	-37	-4.4	25*	21%
COCCNC(=O)C1CCCN(C(=O)c2cc(-c3ccccc3)cs2)CC1 (centres undefined)	/	i	2.9	/	8	-2	1.5	-0.6	/
CCc1cccc(C)c1NC(=O)CSc1n[nH]c(N)n1	0.67	i	-3.5	-4	12	3	1.0	-1.6	/
C=CCn1c(C)cc(C2=NNC(=NCc3ccccc3)SC2)c1C	0.66	i	-1.9	65	10	11	2.0	4.9	6%

Later entries:
SMILES	Ecoli growth	FGF22 binding	HNF4A DNA FP	ALR H2O2 inh	Ecoli rRNA inh	Ecoli rRNA inh OD600	Ecoli rRNA inh RFP	MLL AF4-AF9 inh	Vif TR-FRET
COc1ccccc1NC(=S)N1CCN(c2ccccc2F)CC1	0.69	i	-3.1	-18	2	7	-2.7	1.5	/
N#Cc1cc2c(nc1S(=O)(=O)Cc1ccccc1)CCCC2	0.68	i	-0.7	-3	3	2	1.6	0.2	?
COC(=O)[C@@]12C[C@@H](CC(=O)NCc3cccs3)C(=O)N(Cc3ccc4c(c3)OCO4)C1=CCC(C)(C)C2	/	i	-1.1	/	-6	-3	13	1.5	/
CNC(=O)c1cc2ccc(OC)cc2oc1=O	0.69	/	0.3	/	/	/	/	/	-1%
COc1ccccc1N1CCN(C(=O)C(=O)c2cn(CC(=O)N3CCCC3)c3ccccc23)CC1	0.68	i	3.1	-1	2	3	2.7	1.1	2%
CCn1cc(C2=NC(C)(C)CO2)c2ccccc21	0.68	i	-0.4	1	9	-3	-4.1	4.0	2%
O=C(O)c1cccc(Cn2c(Cl)c(/C=N/NC(=O)c3cc4ccccc4cc3O)sc2=O)c1	/	i	-14	40	21	-8	7.8	2.7	/
COc1ccccc1C(=O)Nc1ccc2c(c1)C(=O)N(C)C[C@H](OC)[C@H](C)CN[C@H](C)CO2	/	i	/	/	-1	2	0.7	-2.1	/
CN(C)C(CNC(=O)c1cccs1)c1ccco1 (centres undefined)	/	i	-1.7	/	9	14	-2.9	-2.2	/
CCCC#Cc1ccc2c(c1)O[C@H](CN(C)C(=O)CC1CC1)[C@H](C)CN([C@H](C)CO)S2(=O)=O	/	i	/	/	-6	-16	12	1.3	/
CCCCNC(=O)C1CCN(Cc2ccc(OCc3ccccc3)cc2)CC1	0.67	/	2.5	-12	/	/	/	/	1%
Cc1ccc(S(=O)(=O)c2c(C)cc(C)nc2N2CCCCC2)cc1	0.66	i	4.1	/	-37	-35	-3.0	-1.3	-3%
